# PD-1 reverse act = activators reversing PD-1 mediated T-cell inhibition | primary human CD4 T cells, PD-L1 beads, CellTiter-Glo 96 h | activation, % (no concentration beside the values) | 29,000 tested, under 10 active;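 active = replicate mean of 50% or more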;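 note: 0% = median vehicle wells and 100% = positive control; 100 nL library stock added to about 50 µL; numbers are from one replicate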
# MITF inh = inhibitors of MITF. TRPM1 promoter luciferase, luminescence, 24 h. inhibition, % (test concentration not listed). actives 0.28% (n = 37,000). AID 2240;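 active = most replicates at 85% or more, or half of them and the mean; inconclusive = half reach 85% but not the mean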;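 note: human melanocyte line stably carrying TRPM1 promoter luciferase reporter; 0% = vehicle wells and 100% = a positive control; the first replicate is given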
# Hedgehog inh = blocks Sonic Hedgehog signaling | Shh-LIGHT2 Gli-luciferase reporter, 30 h | inhibition, % (concentration not given with the values) | actives 2.1% (n = 22,000);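 active = replicate mean of 65% or more; inconclusive = mean lower but half the replicates past it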;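 note: pathway switched on by Shh-conditioned medium diluted 1 in 25 in low serum; 100 nL library stock added to about 40 µL; 0% = median of neutral wells and 100% = positive control level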
# YB-1 expr inh = YB-1 expression inhibition | U2OS, qRT-PCR YB-1 vs CDIP delta delta Cp, 16 h; stronger effect = higher value; zero = DMSO, each unit about twofold | delta delta Cp (YB-1 minus CDIP) (test concentration not listed) | actives 0.37% (n = 30,000) | AID 434959;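 active = delta delta Cp rounded down to an integer at or above 3, about 3 SD of DMSO wells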;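 note: higher means less YB-1 transcript or more CDIP transcript relative to DMSO; stock transfer was 100 nL into about 100 µL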
# Numbers without * were called inactive; ? = inconclusive; nt = no result given. These rows are one share of the data; the hit share may differ from the screen's.
SMILES,PD-1 reverse act,MITF inh,Hedgehog inh,YB-1 expr inh
Cc1ccc(S(=O)(=O)N(C)C[C@H]2Oc3ccc(NC(=O)CCC(F)(F)F)cc3C(=O)N([C@@H](C)CO)C[C@@H]2C)cc1,1.5,4,14,-0.073
COc1ccc(S(=O)(=O)Nc2ccc3c(c2)C(=O)N([C@@H](C)CO)C[C@H](C)[C@H](CN(C)C)O3)cc1,1.1,-1,-44,-0.27
C[C@@H]1CN([C@@H](C)CO)C(=O)c2cccc(NS(=O)(=O)c3cn(C)cn3)c2O[C@H]1CN(C)C(=O)NC1CCCCC1,nt,4,3,0.097
COc1ccccc1NC(=O)c1cccc(S(=O)(=O)N2CCCC2)c1,0.0,8,6,0.29
C[C@@H]1CN([C@@H](C)CO)C(=O)c2cc(NC(=O)c3ccncc3)ccc2O[C@@H]1CN(C)C(=O)Nc1ccc2c(c1)OCO2,-1.1,-7,-37,-0.24
C[C@@H]1CN([C@H](C)CO)C(=O)Cc2cc(NC(=O)Cc3ccccc3)ccc2O[C@H]1CN(C)C(=O)Nc1ccccc1,0.9,-19,-21,0.19
CCC(Sc1nnc(-c2ccc([N+](=O)[O-])cc2)n1C)C(=O)Nc1ccc(Cl)cc1 (stereo not drawn),-0.8,16,nt,nt
COc1ccc(CN(C)C[C@H]2Oc3ccc(NS(=O)(=O)c4ccc(C)cc4)cc3CC(=O)N([C@H](C)CO)C[C@H]2C)cc1,nt,-5,18,0.32
C[C@H](CO)N1C[C@H](C)[C@H](CN(C)Cc2ccccc2)Oc2ccc(NC(=O)Nc3cccc4ccccc34)cc2C1=O,-0.8,4,-1,-0.041
CC(C)c1ccc(NC(=O)CSc2nnc(N)s2)cc1,0.6,-50,nt,nt
O=C(O)c1cc(O)c2c(c1)C(=O)c1cccc(O)c1C2=O,-0.6,19,-12,0.6
C/C(=C\CC(C)(C)CCC(=O)c1ccoc1)C(=O)O,1.5,-9,-8,0.23
O=C(CSc1nnc(-c2ccccn2)n1-c1ccccc1)Nc1ccc2c(c1)OCCO2,1.2,-9,nt,nt
COc1ccc2c(c1)C(C)CC(C)(C)N2C(=O)CSc1nnc(C)s1 (stereo not drawn),-1.8,12,nt,nt
CCC(Sc1nnnn1-c1ccccc1)C(=O)Nc1ccccc1OC (stereo not drawn),-0.5,-6,nt,nt
Cc1ccc(-c2nn3c(C)nnc3c3ccccc23)cc1S(=O)(=O)NCc1ccco1,-4.0,-10,nt,nt
CCOc1ccc(NC(=O)C2CC(=O)NC(N3CCN(C)CC3)=N2)cc1 (stereo not drawn),3.9,-29,nt,nt
O=C(CSc1nnc(-c2ccco2)o1)Nc1sc2c(c1C(=O)Nc1ccccc1)CCCC2,-0.9,18,nt,nt
O=C(Oc1c(CN2CCOCC2)cc(Cl)c2cccnc12)c1ccc([N+](=O)[O-])cc1,-15,70,nt,nt
C[C@H]1CN([C@@H](C)CO)C(=O)c2cc(NC(=O)Cc3ccccc3)ccc2O[C@@H]1CN(C)Cc1ccc(Oc2ccccc2)cc1,nt,10,nt,-0.31
CCOc1ccc(-n2c(SCC(=O)OC)nnc2-c2ccccc2)cc1,0.3,-3,nt,nt
CC1CC(O)CC(C)(C)C1(O)/C=C/C(CO)O[C@@H]1O[C@H](CO)[C@@H](O)[C@H](O)[C@H]1O (stereo partly drawn),-1.1,0,-16,0.45
COc1ccc(C(=O)NCc2n[nH]c(=S)n2C)cc1OC,2.7,0,nt,nt
C[C@@H]1CN([C@@H](C)CO)C(=O)c2cc(NC(=O)CCC(F)(F)F)ccc2O[C@H]1CN(C)Cc1ccc(-c2ccccc2)cc1,0.3,0,nt,-0.24
CC(C)NC(=O)N(C)C[C@H]1Oc2ccc(NC(=O)Cc3cn(C)c4ccccc34)cc2CC(=O)N([C@H](C)CO)C[C@H]1C,-0.5,9,-6,-0.3
C[C@H](CO)N1C[C@H](C)[C@H](CN(C)C(=O)NC2CCCCC2)Oc2ccc(NC(=O)Nc3ccc4c(c3)OCO4)cc2C1=O,3.4,-5,nt,-0.3
COc1ccc(S(=O)(=O)Nc2ccc3c(c2)C(=O)N([C@H](C)CO)C[C@H](C)[C@@H](CN(C)Cc2ccccc2)O3)cc1,1.8,3,22,-0.18
CCCCC/C=C\C/C=C\CCCCCCCC(=O)OC(CO)CO,1.7,-15,-15,0.69
COc1ccc(NC(=O)Nc2ccc3c(c2)C(=O)N([C@H](C)CO)C[C@H](C)[C@@H](CN(C)S(=O)(=O)c2cn(C)cn2)O3)cc1,nt,2,-4,-0.16
CNC[C@@H]1Oc2ccc(NC(=O)Nc3ccc(F)cc3)cc2C(=O)N([C@H](C)CO)C[C@@H]1C,nt,-13,nt,0.036
COc1ccc(S(=O)(=O)N(C)C[C@@H]2Oc3c(NC(=O)Nc4c(C)noc4C)cccc3C(=O)N([C@@H](C)CO)C[C@@H]2C)cc1,1.5,-6,-36,0.22
COc1ccc(CN(C)C[C@@H]2Oc3ccc(NC(=O)Nc4ccc(OC)cc4)cc3CC(=O)N([C@H](C)CO)C[C@H]2C)cc1,nt,7,1,-0.48
Cc1nnc(Nc2ccc(OCC(=O)N3CCN(c4ccccc4)CC3)cc2)c2ccccc12,1.9,29,nt,nt
C[C@@H]1CN([C@@H](C)CO)C(=O)Cc2cc(NC(=O)CCC(F)(F)F)ccc2O[C@@H]1CN(C)Cc1ccc(C(F)(F)F)cc1,0.8,-15,-43,0.27
COc1ccc(NC(=O)Nc2ccc3c(c2)CC(=O)N([C@H](C)CO)C[C@H](C)[C@H](CN(C)C(=O)Nc2cccc4ccccc24)O3)cc1,-0.2,-1,-23,0.68
COc1ccc(NC(=O)Nc2ccc3c(c2)C(=O)N([C@@H](C)CO)C[C@@H](C)[C@H](CN(C)C(=O)NC2CCCCC2)O3)cc1,1.7,16,nt,0.078
C[C@@H]1CN([C@@H](C)CO)C(=O)c2cc(NS(=O)(=O)c3ccccc3)ccc2O[C@H]1CN(C)Cc1ccc(C(=O)O)cc1,1.0,-5,nt,0.22
O=C(CCCN1C(=O)c2ccccc2C1=O)Nc1ccc(Cl)c(C(F)(F)F)c1,0.7,-28,nt,nt
Cc1cc(Cl)ccc1OC(C)C(=O)Nc1cc(C(=O)O)cc(C(=O)O)c1 (stereo not drawn),2.2,0,nt,nt
COc1ccc(CN(C)C[C@H]2Oc3ccc(NC(=O)Cn4cnnn4)cc3C(=O)N([C@H](C)CO)C[C@H]2C)cc1,nt,3,-9,0.22
O=[N+]([O-])c1ccccc1C(c1c[nH]c2ccccc12)c1c[nH]c2ccccc12,2.7,75,nt,nt
Cc1noc(C)c1S(=O)(=O)Nc1cccc2c1O[C@H](CN(C)C(=O)Nc1cccc3ccccc13)[C@H](C)CN([C@@H](C)CO)C2=O,0.8,-1,-33,0.11
C[C@@H]1CN([C@@H](C)CO)C(=O)c2cc(NC(=O)Nc3ccc4c(c3)OCO4)ccc2O[C@@H]1CN(C)C(=O)Nc1ccc(C(F)(F)F)cc1,-3.0,33,-16,0.34
Cc1noc(C)c1NC(=O)Nc1ccc2c(c1)C(=O)N([C@@H](C)CO)C[C@@H](C)[C@H](CN(C)C(=O)NC1CCCCC1)O2,2.4,4,-4,0.27
C[C@@H]1CCCCO[C@H](CN(C)S(=O)(=O)c2ccc(F)cc2)[C@@H](C)CN([C@H](C)CO)C(=O)c2cc(NC(=O)NC3CCCCC3)ccc2O1,nt,-1,-8,-0.097
Cc1noc(C)c1NC(=O)Nc1cccc2c1O[C@H](CN(C)C(=O)Nc1cccc3ccccc13)[C@H](C)CN([C@H](C)CO)C2=O,1.5,3,-17,nt
CSc1ncc(Cl)c(C(=O)Nc2sc3c(c2C(=O)NCCc2ccccc2)CCC3)n1,0.6,-13,nt,nt
C[C@H]1CN([C@@H](C)CO)C(=O)Cc2cc(NC(=O)Cc3ccccc3)ccc2O[C@@H]1CN(C)CC1CC1,1.4,-11,-44,-0.37
C[C@@H]1CN([C@@H](C)CO)C(=O)c2cc(NC(=O)Nc3cccc4ccccc34)ccc2O[C@@H]1CN(C)C(=O)Nc1ccc2c(c1)OCO2,-2.1,-5,-16,0.17
C[C@@H]1CN([C@@H](C)CO)C(=O)c2cccc(NS(=O)(=O)c3cccs3)c2O[C@@H]1CN(C)C(=O)Nc1ccc(C(F)(F)F)cc1,-0.7,5,-7,-0.17
# The list continues:
SMILES,PD-1 reverse act,MITF inh,Hedgehog inh,YB-1 expr inh
COc1cc(NC(=O)CCCN2C(=O)c3ccccc3C2=O)cc(OC)c1,0.7,-2,nt,nt
Cc1noc(C)c1S(=O)(=O)Nc1ccc2c(c1)C(=O)N([C@H](C)CO)C[C@H](C)[C@H](CN(C)Cc1ccccc1)OCCCC[C@@H](C)O2,nt,-3,38,0.25
O=c1c2ccccc2nnn1CN1CCCCC1,0.0,-3,43,-0.4
Cc1noc(C)c1NC(=O)Nc1ccc2c(c1)C(=O)N([C@@H](C)CO)C[C@@H](C)[C@H](CN(C)C(=O)Nc1ccc(C(F)(F)F)cc1)O2,1.3,-1,-20,-0.21
O=C(O)CSc1nc2cc(F)c(F)cc2[nH]1,0.7,1,nt,nt
O=C(CSc1nc2ccccc2nc1N1CCOCC1)NCc1ccc2c(c1)OCO2,0.7,-5,?,-0.64
C[C@@H]1CN([C@@H](C)CO)C(=O)Cc2cc(NC(=O)NC3CCCCC3)ccc2O[C@@H]1CN(C)S(=O)(=O)c1ccc(F)cc1,nt,-14,-7,0.012
C[C@@H]1CCCCO[C@@H](CN(C)C(=O)C2CCCCC2)[C@@H](C)CN([C@H](C)CO)C(=O)c2cc(NC(=O)c3ccccc3)ccc2O1,-1.8,0,nt,-0.12
C[C@@H]1CN([C@H](C)CO)C(=O)Cc2cc(NC(=O)Nc3ccc(C(F)(F)F)cc3)ccc2O[C@@H]1CN(C)S(=O)(=O)c1cccs1,0.1,23,10,0.13
Cc1noc(C)c1S(=O)(=O)Nc1ccc2c(c1)C(=O)N([C@@H](C)CO)C[C@@H](C)[C@@H](CN(C)Cc1ccc(C(=O)Nc3ccccc3N)cc1)O2,-1.4,6,nt,-0.31

# Entries listed so far with a Cl atom:
SMILES,PD-1 reverse act,MITF inh,Hedgehog inh,YB-1 expr inh
CCC(Sc1nnc(-c2ccc([N+](=O)[O-])cc2)n1C)C(=O)Nc1ccc(Cl)cc1 (stereo not drawn),-0.8,16,nt,nt
O=C(Oc1c(CN2CCOCC2)cc(Cl)c2cccnc12)c1ccc([N+](=O)[O-])cc1,-15,70,nt,nt
O=C(CCCN1C(=O)c2ccccc2C1=O)Nc1ccc(Cl)c(C(F)(F)F)c1,0.7,-28,nt,nt
Cc1cc(Cl)ccc1OC(C)C(=O)Nc1cc(C(=O)O)cc(C(=O)O)c1 (stereo not drawn),2.2,0,nt,nt
CSc1ncc(Cl)c(C(=O)Nc2sc3c(c2C(=O)NCCc2ccccc2)CCC3)n1,0.6,-13,nt,nt

# Later entries:
SMILES,PD-1 reverse act,MITF inh,Hedgehog inh,YB-1 expr inh
C[C@@H]1CN([C@@H](C)CO)C(=O)Cc2cc(NC(=O)Nc3ccc(C(F)(F)F)cc3)ccc2O[C@@H]1CN(C)C(=O)Nc1ccccc1,-2.2,21,12,-0.13
Cc1ccc(S(=O)(=O)Nc2ccc3c(c2)CC(=O)N([C@H](C)CO)C[C@H](C)[C@H](CN(C)Cc2ccncc2)O3)cc1,nt,-8,nt,-0.33
C[C@H]1CN([C@@H](C)CO)C(=O)c2cc(NC(=O)CCCN(C)C)ccc2O[C@H]1CN(C)S(=O)(=O)c1ccc(F)cc1,2.6,-4,-15,0.45
Cc1noc(C)c1NC(=O)Nc1cccc2c1O[C@@H](CN(C)Cc1ccc(C(=O)Nc3ccccc3N)cc1)[C@H](C)CN([C@H](C)CO)C2=O,2.3,-6,nt,-0.37
Cc1ccc(COc2ccc(I)cc2)cc1,0.6,-91,-56,-0.03
COc1ccc(NC(=O)Nc2cccc3c2O[C@H](CN(C)S(=O)(=O)c2cn(C)cn2)[C@@H](C)CN([C@H](C)CO)C3=O)cc1,0.4,5,-19,-1
COc1ccc(NC(=O)Nc2ccc3c(c2)CC(=O)N([C@H](C)CO)C[C@@H](C)[C@H](CN(C)S(=O)(=O)c2cccs2)O3)cc1,-1.8,-2,27,0.36
N=c1ccccn1CC(O)COc1ccccc1 (stereo not drawn),1.4,-6,-28,-0.19
C[C@H](CO)N1C[C@H](C)[C@@H](CN(C)S(C)(=O)=O)Oc2c(NC(=O)C3CC3)cccc2C1=O,2.3,-12,-12,0.14
Cc1ccc(S(=O)(=O)N(C)CC(=O)Nc2ccc(C(N)=O)cc2)cc1,1.0,-12,nt,nt
COc1cc(O)c(C(=O)CCc2ccc(OC)c(OC)c2)c(OC)c1,-1.5,-51,13,4.9*
O=C(COc1ccc(C(=O)Nc2cc(Cl)ccc2Cl)cc1)Nc1cccc2ccccc12,-1.0,15,nt,nt
COc1ccc(OC)c(NC(=O)CSc2nc(-c3ccccc3)nc3c2COC(C)(C)C3)c1,-4.2,10,nt,nt
C[C@H](CO)N1C[C@H](C)[C@H](CN(C)C(=O)NC2CCCCC2)Oc2ccc(NC(=O)CCCCCC(=O)Nc3ccccc3N)cc2CC1=O,-0.5,-4,nt,0.29

# Assay outcomes (PubChem BioAssay)
